Bioassay records as filed in PubChem.
Mtb hypoxia inh – Mtb hypoxia fluorescent reporter inhibition | M. tuberculosis hypoxia-regulated fluorescent reporter, fluorescence | fluorescence inhibition, % (no concentration beside the values) | 300,000 compounds, 0.1% hits | AID 1159583;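 active = 35 to 45% if threefold the growth effect, above 45% if 1.5-fold the growth effect; inactive = the rest, general growth blockers included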;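 note: wells of about 50 µL received 100 nL stock; 0% = vehicle wells and 100% = reference inhibitor wells; whole bacteria with a GFP reporter of the hypoxia response; strong numbers were not always called active; many hits fall short of the cut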
Sa ugtP lethal – growth inhibition of S. aureus ugtP deletion strain. S. aureus RN4220 ugtP deletion, OD600 growth, 16 h; some inactives read as strong as hits. growth inhibition, % (test concentration not listed). 330,000 compounds, 0.54% hits. AID 1259309;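 active = z-score under -3 and OD600 up to 0.15 on both plates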;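 note: plate controls were untreated wells for no effect and antibiotic for full effect; wells of about 80 µL received 100 nL stock; the first replicate is given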
PrP UTR inh – suppresses PrP 5' UTR mRNA reporter expression. cell-based PrP 5' UTR mRNA reporter, plate reader. inhibition, % (concentration not given with the values). 340,000 compounds, 0.35% hits. AID 488862;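 active = every replicate at 50% or more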;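 note: 0 = median of the neutral control wells; tested in H4 reporter cells; numbers are from one replicate; inactives centre near -14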
Bead autofluor – compound fluorescence in toxin protease inhibitor counterscreen; 360,000 compounds, 3.1% hits; fluorescence intensity (concentration not given with the values); compound autofluorescence counterscreen, microsphere flow cytometry; hits give high values; AID 624483;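 active = at least 3 SD above the mean of all compounds, about 16000 in these data; inconclusive = too few beads counted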;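 note: 100 nL of 1 mM stock went into each well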
BJeLR viability – BJeLR cell viability loss | 300,000 compounds, 0.17% hits | BJeLR (HRASV12) viability, CellTiter-Glo ATP luminescence, 48 h; reference of the scale not given here | inhibition, % (concentration not given with the values) | AID 1554;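 active = replicate mean above 50%; inconclusive = above 50% but judged a plate artefact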;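 note: 50 nL library stock added to about 25 µL; numbers are from one replicate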
Sa RN4220 lethal – kills Staphylococcus aureus RN4220; S. aureus RN4220 growth, OD600, 16 h; inhibition, % (no concentration beside the values); 330,000 compounds, 0.33% hits; AID 1259311;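 active = z-score of -3 or lower and OD600 up to 0.18 on both plates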;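 note: plate controls were untreated cells for no effect and reference antibiotic for full effect; stock transfer was 100 nL into about 80 µL; one replicate is shown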
Mtb hypoxia inh growth – second read-out of Mtb hypoxia inh, no call of its own (marks repeat the call); growth inhibition, %; measured here: M. tuberculosis growth (absorbance);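 0% = vehicle and 100% = reference antibiotic; read after six days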
An asterisk follows results filed as active; ? = inconclusive; nt = no result given. An unsorted share of the library, and some 3.9% of all compounds hit somewhere here.

Structure,Mtb hypoxia inh,Mtb hypoxia inh growth,Sa ugtP lethal,PrP UTR inh,Bead autofluor,BJeLR viability,Sa RN4220 lethal
Fc1ccccc1Cc1noc(CN(Cc2ccccn2)CC2CCCO2)n1 (stereo unspecified),-2,8,4,-20,4361,4,5.1
C=CCn1cccc(C(=O)Nc2ccc(F)cc2)c1=O,7,-6,5,-68,3705,3,1.7
CCN(CC)S(=O)(=O)c1cc(NC(=O)COC(=O)CCC(=O)c2ccc(F)cc2)ccc1C,-3,5,0,4,2408,10,5.8
O=C(c1cccs1)N1CCn2c1nc1ccccc12,nt,nt,4,-81,3593,-1,4.4
Nc1c(Br)cc(Br)c2c1C(=O)c1c(cccc1S(=O)(=O)O)C2=O,nt,nt,-5,-9,2802,nt,19
O=C(COC(=O)c1ccc(S(=O)(=O)NCc2ccco2)cc1)Nc1ncc(Cl)cc1Cl,9,7,0,-3,2416,18,8.9
Cc1ccc(-n2c(C)nc3oc4ccccc4c(=O)c3c2=O)cc1,3,-1,-3,-66,4505,4,-0.7
CC1CCCCC1NS(=O)(=O)CCNC(=O)c1ccc2c(c1)OCO2 (stereo unspecified),15,12,3,2,4930,16,3.4
COc1ccc(C2C(C(=O)N3CCOCC3)CCC(=O)N2c2ccc(OC)cc2)cc1 (stereo unspecified),nt,nt,0,-11,4841,-3,0.3
COc1ccc(N2CCN(C(=O)CCc3ccccc3)CC2)cc1,nt,nt,0,12,3901,-30,-1.6
CCOC(=O)N1CCN(C(=O)c2ccc3nc(C)sc3c2)CC1,nt,nt,-1,2,5022,10,-0.3
CC(C)CN(CC(C)C)S(=O)(=O)c1cc([N+](=O)[O-])ccc1N1CCCCCC1,nt,nt,-2,-16,3881,2,-8.9
CCOc1ccccc1NC(=O)c1ccc(CN2CCc3ccccc3C2)cc1,8,3,0,-16,3866,4,4.0
CCCNC(=O)Cn1cnc2sc(C(=O)Nc3cc(OC)c(OC)c(OC)c3)c(C)c2c1=O,5,7,3,-11,16034,-9,1.8
O=C(CN1c2cccc3cccc(c23)S1(=O)=O)N1CCOCC1,3,4,10,-14,16664*,8,5.0
CCCCNC(=O)ON=C(N)CS(=O)(=O)C(C)(C)C,-6,0,-2,nt,nt,nt,1.8
CCSc1nc2c([nH]c3ccccc32)c(=O)n1C,2,0,6,-14,6935,5,2.1
COc1ccc(-c2csc(Nc3ccc(S(N)(=O)=O)cc3)n2)cc1OC,-4,-2,4,3,2544,1,1.7
COc1ccccc1N1CCN(S(=O)(=O)c2c(C)[nH]c(=O)[nH]c2=O)CC1,9,8,7,-12,4370,-1,-5.5
CN1CCN(C(=O)C2CC(c3ccc(F)cc3)=NO2)CC1 (stereo unspecified),nt,nt,6,-22,4614,-4,2.4
Cc1cc(-c2nn3c(-c4ccccc4)nnc3s2)c2ccccc2n1,6,7,1,-9,8076,-4,2.8
COc1ccc(-n2cc(-c3ccccc3)c3c(=S)nc[nH]c32)cc1,1,-3,-8,-6,4699,-5,-1.7
COc1ccc(CN2C(=O)[C@@H]3C(c4ccc(F)cc4)=NO[C@@H]3C2=O)cc1,nt,nt,3,-27,4137,nt,3.0
COC(=O)C(C)Oc1ccc2c(c1)O/C(=C\c1ccco1)C2=O (stereo unspecified),-2,11,0,nt,4388,-2,4.4
CN(C)c1nnnn1-c1ccc(Oc2ccccc2)cc1,17,2,9,-24,2627,-1,5.6
Nc1c(C=C2C=CC(=O)C=C2)c(=O)nc2snc(SCc3ccccc3)n12,2,-8,9,-8,6011,1,1.7
COC(=O)c1ccccc1NC(=S)N(Cc1ccc2c(c1)OCO2)Cc1cc2cc(C)ccc2[nH]c1=O,4,3,-6,-1,2047,-7,0.7
COc1cc(OC)c(-c2nc3cnccc3n2C)cc1OC,5,3,2,-3,16895*,0,3.4
COc1ccccc1N1CCN(C(=O)c2cc3c(=O)n4ccccc4nc3s2)CC1,-2,1,7,-10,nt,nt,1.1
CC(=O)c1ccccc1OCCCN1CCCCC1,nt,nt,-9,-15,3042,-7,2.6
Cc1oc2c(CN3CCCCC3C)c(O)ccc2c(=O)c1-c1ccc(Br)cc1 (stereo unspecified),-5,5,-4,-15,4049,1,0.2
NS(=O)(=O)c1ccc(-n2nncc2-c2ccco2)cc1,-1,6,6,-74,5262,4,-0.2
COc1ccc(OC)c(NC(=O)CSc2nnc3ccc(-c4ccccn4)nn23)c1,1,0,11,-14,?,-4,3.0
N#Cc1c(C(F)(F)F)cc(-c2cccc(Cl)c2)[nH]c1=O,3,8,31,-9,3755,8,47
OC(COc1ccc(Br)cc1)Cn1ccnc1 (stereo unspecified),8,-5,5,-17,4325,5,1.4
C/C(=N/NC(=O)Cc1cccc2ccccc12)c1cccs1,nt,nt,nt,-3,3582,7,nt
CCOc1ccc(C)cc1S(=O)(=O)Nc1ccc(Cl)cn1,2,2,5,-7,10464,-5,2.9
CCCC(=O)Nc1ccc(C(=O)Nc2nc(CC(=O)OCC)cs2)cc1,7,11,-7,-27,10264,10,6.9
O=C(Nc1nnc(-c2ccncc2)o1)c1ccc2ccccc2c1,8,3,10,-9,6049,0,26
S=c1[nH]nc(-c2ccccn2)n1N=Cc1ccco1,-13,-10,15,nt,nt,nt,3.6
CC(C)CCNC(=O)C(NS(=O)(=O)c1ccc2c(c1)c(=O)n(C)c(=O)n2C)c1ccccc1 (stereo unspecified),4,-1,-2,-18,5514,8,3.3
Cc1[nH]c(=O)[nH]c(=O)c1S(=O)(=O)N1CCN(c2cccc(Cl)c2)CC1,nt,nt,-1,8,2204,2,3.2
CCC(Sc1nc2ccc(N)cc2s1)C(=O)Nc1nccs1 (stereo unspecified),14,10,-6,-8,9921,4,-1.0
Cc1c(C(=O)NCCSCc2c(F)cccc2Cl)cnn1-c1ccc(Cl)cc1,nt,nt,nt,-8,3049,-6,nt
C[C@H]1CN(S(=O)(=O)c2ccc3c(c2)OCCO3)CCN1S(=O)(=O)c1c(F)cccc1F,-7,9,4,-33,4180,nt,17
CCOC(=O)c1ccc(N2C(=O)C3C(C2=O)C(C(=O)c2ccc(Cl)cc2)N2CCCC32)cc1 (stereo unspecified),-9,10,-3,9,4915,-15,0.0
CCCCCC(O)(CCN1CCCCC1)c1ccc(OCC)cc1 (stereo unspecified),10,-1,0,-15,2481,3,3.1
CCCCCn1c(=O)c(C(=O)Nc2ncccc2C)c(O)c2ccccc21,nt,nt,101*,-4,4119,-9,53
CCN1C(=O)[C@H]2[C@@H](c3ccc(-c4ccc(C(C)=O)cc4)cc3)N3CCC[C@@]3(C(=O)OC)[C@H]2C1=O,nt,nt,nt,4,3933,-5,nt
O=C(CN1CCCCC1)NN=Cc1cc2ccccc2nc1Cl,6,18,-5,nt,nt,nt,2.6
CCOc1ccc(Br)cc1S(=O)(=O)NC1CCCC1,8,3,4,-14,nt,nt,6.4
Cc1ccc(N2CC(C(=O)NCCS(=O)(=O)N3CCN(c4ccccc4F)CC3)CC2=O)cc1 (stereo unspecified),-9,-6,-3,-25,4977,2,6.6
Nc1nc(SCC(=O)Nc2cc(C(F)(F)F)ccc2N2CCOCC2)n[nH]1,14,15,3,-24,4476,-1,2.0
Cc1ccc(NC(=O)CC2S/C(=N/N=C3\CCCc4ccccc43)NC2=O)cc1 (stereo unspecified),nt,nt,nt,-12,2423,-9,nt
CCN(CC)C(=O)C(C)OC(=O)COc1ccc(Cl)cc1C (stereo unspecified),-1,-6,13,-14,22121*,-14,8.7
CC(C)OC(=O)NCCOC(=O)Nc1ccc(Cl)c(Cl)c1,5,5,-19,-19,3922,-10,-3.0
Cc1[nH]n(-c2ccccc2)c(=O)c1N=Nc1c(O)cc(S(=O)(=O)N(C)C)c2ccccc12,19,6,5,22,3636,40,-0.2
COc1cc(NC(=S)N2CCCC(CO)C2)cc(OC)c1 (stereo unspecified),13,-5,-1,-10,4838,-2,2.1
CC(=O)Oc1ccc(NC(=O)Cc2ccccc2)c(C(=O)O)c1,12,-7,2,8,4554,-15,2.1
CCOC(=O)c1cc(C)n(Cc2ccc(OCC)c(OC)c2)c1C,15,7,1,-19,17147*,-8,9.2

Results in Mtb hypoxia inh growth, Mtb hypoxia inh and BJeLR viability, for some of the entries so far:
Structure,Mtb hypoxia inh growth,Mtb hypoxia inh,BJeLR viability
Nc1nc(SCC(=O)Nc2cc(C(F)(F)F)ccc2N2CCOCC2)n[nH]1,15,14,-1
Cc1ccc(NC(=O)CC2S/C(=N/N=C3\CCCc4ccccc43)NC2=O)cc1 (stereo unspecified),nt,nt,-9
CCN(CC)C(=O)C(C)OC(=O)COc1ccc(Cl)cc1C (stereo unspecified),-6,-1,-14
CC(C)OC(=O)NCCOC(=O)Nc1ccc(Cl)c(Cl)c1,5,5,-10

The results go on.
Structure,Mtb hypoxia inh,Mtb hypoxia inh growth,Sa ugtP lethal,PrP UTR inh,Bead autofluor,BJeLR viability,Sa RN4220 lethal
CC(NC(=O)C1CCN(S(=O)(=O)c2cccs2)CC1)c1cccc(Cl)c1 (stereo unspecified),12,7,1,-26,8931,nt,-0.8
N/C(=N\OC(=O)CCc1ccccc1)c1cccc(Br)c1,11,-1,-7,-33,4267,1,8.8
O=C(CCCCCN1C(=O)[C@@H]2Cc3ccccc3CN2C1=O)N[C@@H](Cc1ccc(O)cc1)C(=O)O,nt,nt,4,-35,5038,-6,0.5
CCOC(=O)C1CCN(C(=O)CCCn2c(=O)c3cccn3c3cccnc32)CC1,9,7,4,-10,5376,6,1.8
CCCCN(CC)CCNC(=O)c1cc2c(=O)n(C)c3ccccc3c2s1,nt,nt,nt,-10,3830,14,nt
CCOc1ccc(C(=O)Nc2ccc(S(=O)(=O)N3CCOCC3)cc2)cc1OCC,-1,1,-6,-21,3287,10,0.2
Oc1ccccc1C=NCC(O)c1ccccc1 (stereo unspecified),8,4,-2,-22,8565,-1,5.6
CCC(C)C(C)=NNC(=O)CNS(=O)(=O)c1ccc([N+](=O)[O-])cc1 (stereo unspecified),-5,2,7,nt,nt,nt,27
Cc1ccc(S(=O)(=O)Oc2ccc(/C=N/NC(=O)c3c(Cl)cnn3C)cc2)cc1,nt,nt,nt,-17,6924,-4,nt
COc1ccc(/C=C2\Oc3cc(OCC(N)=O)ccc3C2=O)cc1OC,-5,0,0,-20,3961,1,0.2
Cc1ccc(C(CC(=O)O)NC(=O)c2ccc(S(=O)(=O)N3CCCC3)cc2)cc1 (stereo unspecified),10,9,5,-54,6505,nt,5.5
CCOc1ccc(CCNC(=O)COC(=O)c2cccc(N(C)C)c2)cc1OCC,-1,-2,-2,-38,4716,-9,-1.0
